Bioassay records: PubChem, Southern Research Specialized Biocontainment Screening Center
Mtb betalactam = beta-lactam sensitization of Mtb H37Rv | actives 0.27% (n = 330,000) | M. tuberculosis H37Rv growth with meropenem, percent inhibition; hits of this screen are not shown here | inhibition, % at 25 µM | AID 434955;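 active means about 74% or more and at least 40 points above the plate without the antibiotic, then above 30% in a dose series; inconclusive means first-round hits that could not be retested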;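 further: growth measured after seven days incubation then overnight dye step; 0% = bacteria only wells and 100% = bacteria with antibiotic; twin plates without the antibiotic show which effects depend on it; some results filed as inactive read as strong as hits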
An asterisk follows results filed as active; ? = inconclusive.

SMILES	Mtb betalactam
O=C(CN1C(=O)NC2(CCCCC2)C1=O)N1CCN(S(=O)(=O)c2ccc(Cl)s2)CC1	-9
O=C(c1nc[nH]c1C(=O)N1CCN(c2ccccc2)CC1)N1CCN(c2ccccc2)CC1	-8
O=C(CCNC(=O)c1ccccc1)NN=Cc1ccc(Br)o1	8
COc1ccc(CCC(=O)OCC(=O)c2ccc[nH]2)cc1OC	5
O=C1CCCC/C=C\C[C@H](CC(=O)N(CCO)Cc2ccccc2)C(=O)NCCO1	-2
CCC(c1ccc(C)cc1)N1C(=O)C2C3CCC(O3)C2C1=O (stereo not given)	5
COc1cc(NC(=O)COC(=O)CNC(=O)C2CCCCC2)cc(OC)c1	-7
O=C(COC(=O)c1cc(S(=O)(=O)N2CCOCC2)c(Cl)cc1Cl)c1ccc[nH]1	1
Cc1nc(CN(C)C(=O)CC2C(=O)NCCN2Cc2ccc(F)cc2)cs1 (stereo not given)	?
Cc1cc(C(=O)Nc2sccc2C(N)=O)c(C)o1	-9
CC(NC(=O)COC(=O)Cn1cc(C(F)(F)F)ccc1=O)c1ccccc1 (stereo not given)	0
COc1ccc(CCNC(=O)CN2C(=O)NC3(CCc4ccccc43)C2=O)cc1 (stereo not given)	9
Cc1ccc(/C=C/S(=O)(=O)NCCC(=O)NCc2ccc(F)cc2)cc1	-3
O=C(NNc1c(F)c(F)cc(F)c1F)c1ccco1	-7
CCN(CC)S(=O)(=O)c1cccc(NC(=O)c2cccc(S(=O)(=O)N3CCCC3)c2)c1	-2
COc1ccc(C(=O)NNC(=O)C23CC4CC(CC(C4)C2)C3)cc1OC	-5
C[C@H]1COC(=O)CCCC/C=C\C[C@H](CC(=O)N(CCO)Cc2ccccc2)C(=O)N1	0
O=S(=O)(c1ccc(=S)[nH]c1)N1CCCCCC1	-5
C[N+](C)(CCCCCC[N+](C)(C)CCCN1C(=O)c2cccc3cccc(c23)C1=O)CCCN1C(=O)c2cccc3cccc(c23)C1=O	98
CC(C)C[C@H]1CN=C(N(C)C)N1CCc1cccc(F)c1	-8
COc1ccc(C(=O)NNC(=O)c2cc(C)nc3ccccc23)cc1	-1
O=S(=O)(NC1=NCCCCC1)c1cc(F)ccc1F	5
CCOc1ccc(C(=O)NCC(=O)Nc2cc(C)ccn2)cc1OCC	2
O=C(CCNC(=O)c1ccco1)NCc1ccc(F)cc1	3
O=C(COC(=O)c1ccc(F)c(S(=O)(=O)N2CCOCC2)c1)NCc1ccccc1	-2

Looked up above.
Reading of `CC(C)C[C@H]1CN=C(N(C)C)N1CCc1cccc(F)c1` under Mtb betalactam: -8
Reading of `O=S(=O)(NC1=NCCCCC1)c1cc(F)ccc1F` under Mtb betalactam: 5
Reading of `Cc1cc(C(=O)Nc2sccc2C(N)=O)c(C)o1` under Mtb betalactam: -9

Later entries.
SMILES	Mtb betalactam
NC(=O)Nc1ccc(C(=O)OCC(=O)NC2CCCc3ccccc32)cc1 (stereo not given)	9
C#CCOCCOCCOCCNc1nc(N2CCN(C(=O)[C@H](CCCCN)n3cc(CN)nn3)CC2)nc(N2CCN(C(=O)[C@H](CCCCN)n3cc([C@@H](N)[C@H](C)CC)nn3)CC2)n1	0
CCN(C(=O)COc1ccccc1C(=O)NCc1ccccc1)C1CCS(=O)(=O)C1 (stereo not given)	-3
CCc1noc(C)c1C(=O)OC(C)C(=O)NCc1ccc(OC)cc1 (stereo not given)	-3
Cc1ccc(SCC(=O)Nc2nnc(C(C)(C)C)s2)cc1	-2
Cc1c(Cl)cnc(NC(=O)COC(=O)C2CC3CCCC(C2)C3=O)c1Cl (stereo not given)	15
COc1ccc(NC(=O)Nc2ccc3c(c2)C(=O)N([C@H](C)CO)C[C@H](C)[C@@H](CN(C)C(=O)Nc2ccc(C(F)(F)F)cc2)O3)cc1	-4
O=C(COC(=O)CC1CC2CCC1C2)Nc1ccccc1[N+](=O)[O-] (stereo not given)	2
Cc1ccccc1C(=O)OC(C)C(=O)NCc1ccc2c(c1)OCO2 (stereo not given)	-5
CN(C)C(CNC(=O)c1cccc(S(=O)(=O)Nc2ccccc2Cl)c1)c1ccco1 (stereo not given)	-2
COc1ccc(CCNC(=O)COC(=O)c2cc(=O)c3ccccc3o2)cc1	-8
C/C=C/C1=CC(=O)C[C@H](c2ccc3c(c2)OCO3)C1	4
Cc1ccc(OCC(=O)OC(C)C(=O)NC2CCCCC2C)cc1C (stereo not given)	3
CCc1noc(C)c1C(=O)N1CC(C)SC1=Nc1ccc(Cl)cc1 (stereo not given)	5
O=C(N[C@H]1CCC(=O)N([C@H](CSc2ccc(Br)cc2)Cc2ccccc2)CC1)OCc1ccccc1	-5
O=C(COC(=O)CCC(=O)c1cccs1)NC1CCCCC1	-3
Cc1ccc(S(=O)(=O)N2CCCCC2)cc1NC(=O)CSc1nnc(C2CC2)n1C	3
Nc1nc(COC(=O)C2CCN(C(=O)c3ccc(Cl)cc3)CC2)nc(Nc2ccccc2)n1	-2
COc1ccc2nc(NC(=O)c3c(C)noc3C)sc2c1	22
Cc1noc(C)c1NC(=O)N(C)C[C@H]1Oc2c(NC(=O)NC(C)C)cccc2C(=O)N([C@H](C)CO)C[C@@H]1C	-7
Nn1c(SCC(=O)Nc2ccc(N3CCOCC3)cc2)nnc1-c1cccc(F)c1	-4
CN(C)c1cc(-c2ccccc2)nc(-c2ccccc2)n1	6
COC(=O)C1=C(c2c(C)noc2C)C[C@@H]2CC[C@H]1N2C(=O)NCCOc1ccccc1	1
COc1ccc([C@H]2CC(=O)C=C(c3ccc(C(=O)O)cc3)C2)cc1OC	-12
CCC(C(=O)Nc1ccc(S(=O)(=O)N(C)C2CCN(C)CC2)cc1)c1ccccc1 (stereo not given)	1

Structures from the list above containing a Cl atom, in the order listed:
SMILES	Mtb betalactam
O=C(CN1C(=O)NC2(CCCCC2)C1=O)N1CCN(S(=O)(=O)c2ccc(Cl)s2)CC1	-9
O=C(COC(=O)c1cc(S(=O)(=O)N2CCOCC2)c(Cl)cc1Cl)c1ccc[nH]1	1
Cc1c(Cl)cnc(NC(=O)COC(=O)C2CC3CCCC(C2)C3=O)c1Cl (stereo not given)	15
CN(C)C(CNC(=O)c1cccc(S(=O)(=O)Nc2ccccc2Cl)c1)c1ccco1 (stereo not given)	-2
CCc1noc(C)c1C(=O)N1CC(C)SC1=Nc1ccc(Cl)cc1 (stereo not given)	5
Nc1nc(COC(=O)C2CCN(C(=O)c3ccc(Cl)cc3)CC2)nc(Nc2ccccc2)n1	-2

(list continues)
SMILES	Mtb betalactam
CN(CC(=O)NCc1ccco1)C(=O)C1CC(=O)N(c2ccc3c(c2)OCCO3)C1 (stereo not given)	2
COc1ccc(/C=C/c2c(-c3ccccc3OC)sc3ccccc23)cc1OC	7
O=C(CSc1ncnc2sc3c(c12)CCCC3)NC1CCS(=O)(=O)C1 (stereo not given)	-4
O=C(COc1ccc(S(=O)(=O)N2CCOCC2)cc1)NC1CCCCC1	-2
COc1cc(OC)cc(-c2c(C#Cc3ccsc3)c3cc(-c4ccc(CN5CCOCC5)cc4)ccc3n2C)c1	1
CCOC(=O)c1ccc(S(=O)(=O)NNc2ccc(C(F)(F)F)cn2)cc1	1
CCCSc1ccc([C@@H]2[C@H]3C(=O)N(CC)C(=O)[C@H]3[C@]3(C(=O)OC)CCCN23)cc1OC	-8
NS(=O)(=O)c1cccc(NC(=O)COC(=O)/C=C/c2nc3ccccc3s2)c1	-4
NC(=O)c1ccc(NC(=O)COC(=O)/C=C/c2ccc(Br)o2)cc1	5
CCCN(C(=O)COc1ccc(C(C)=O)cc1OC)C1CCS(=O)(=O)C1 (stereo not given)	-5
COc1ccc(NS(=O)(=O)c2cccc(C(=O)NN=Cc3ccc(O)c(OC)c3)c2)cc1	1
CCOC(=O)C1=C(COC(=O)C2CC(=O)N(CCc3ccccc3)C2)NC(=O)NC1C (stereo not given)	-7
O=C(CN1c2cccc3cccc(c23)S1(=O)=O)NC1CCCCC1	1
C[C@@]12C(=O)N(Cc3ccc(Cl)cc3)CC(=O)N1[C@H]1c3ccccc3OC[C@@H]1[C@@H]2c1ccccc1	73
Cc1n[nH]c(C)c1NC(=O)CSc1nnnn1-c1cccc(F)c1	-4
CC(C)c1cccc(-c2ccc3c(c2)S(=O)(=O)c2cccc(C(=O)O)c2C3=O)c1	-10
O=C(Nc1ccccc1)c1nc[nH]c1C(=O)NCCN(CCNC(=O)c1[nH]cnc1C(=O)Nc1ccccc1)CCNC(=O)c1[nH]cnc1C(=O)Nc1ccccc1	18
O=S(=O)(c1ccccc1F)N1CCN(CCOc2ccccc2)CC1	7
CCC(CO)Oc1cc(NC(=O)c2ccc(OC)cc2)c2ncn(C(C)C)c2c1 (stereo not given)	-4
NC(=O)C1CCN(C(=O)c2ccc(NS(=O)(=O)c3ccc(F)c(F)c3)cc2)CC1	-4
O=C(CCc1nc(-c2ccccc2)no1)Nc1cccnc1	-8
COC(=O)c1ccccc1NC(=O)CN1CCCCCC1	-4
CN(CC(=O)Nc1cccc(F)c1)CC(=O)Nc1cc(S(=O)(=O)N2CCOCC2)ccc1Cl	-16
Cc1ccc(S(=O)(=O)N2CCOCC2)cc1NC(=O)CN1CCN(C)CC1	-5
CC(=O)c1ccc(S(=O)(=O)N2CCN(CC(=O)Nc3ccccc3C(=O)NC3CC3)CC2)cc1	-1

Rewritten as labelled records: two of the compounds above
SMILES: NC(=O)c1ccc(NC(=O)COC(=O)/C=C/c2ccc(Br)o2)cc1
  Mtb betalactam: 5
SMILES: COc1cc(OC)cc(-c2c(C#Cc3ccsc3)c3cc(-c4ccc(CN5CCOCC5)cc4)ccc3n2C)c1
  Mtb betalactam: 1

Following part
SMILES	Mtb betalactam
Cc1cccc(C(=O)OCC(=O)c2ccc3c(c2)OCCO3)c1O	19
CC[C@H](C)[C@@H](C(=O)NCCCCCCCCCCC(=O)N1CCNCC1)n1cc(CCCCN=C(N)N)nn1	13
C[C@H](CO)N1C[C@H](C)[C@@H](CN(C)C(=O)Nc2ccc3c(c2)OCO3)Oc2c(NC(=O)C3CCCCC3)cccc2C1=O	3
Cc1noc(C)c1NC(=O)Nc1ccc2c(c1)C(=O)N([C@H](C)CO)C[C@H](C)[C@@H](CN(C)C(=O)Nc1c(C)noc1C)O2	-8
O=C(CCCN1C(=O)NC2(CCCC2)C1=O)NCc1ccccc1	-3
C[C@@H](NC(=O)/C(C#N)=C/c1ccc(O)c(O)c1)c1ccccc1	6
COc1cc(NC(=O)CSc2nnc3ccccn23)cc(OC)c1	2
O=C(COC(=O)/C=C/c1ccc(F)cc1)NCC1CCCO1 (stereo not given)	1
O=C(CN1C(=O)NC(c2ccccc2)(c2ccccc2)C1=O)N1CCOCC1	-4
COCc1ccccc1C1=CC(=O)C[C@H](c2ccc(F)cc2)C1	-2
CCOc1ccccc1NC(=O)CSc1nncc2ccccc12	0
CCN1C(=NCc2cc(OC)c(OC)c(OC)c2)N[C@@H](c2cccc(C(F)(F)F)c2)C(C(=O)OC)=C1C	-1
NC(=O)c1ccc(NC(=O)CNC(=O)c2sc3ccccc3c2Cl)cc1	-12
CCCCCCCN1C(N(C)C)=NC[C@@H]1Cc1ccccc1	1
CN(C(=O)COC(=O)C12CC3CC(CC(C3)C1)C2)c1c(N)n(Cc2ccccc2)c(=O)[nH]c1=O	6
CN(C)c1ccc(C(=O)Nc2cccc(S(=O)(=O)NC3=NCCCCC3)c2)cc1	-4
COc1ccc(S(=O)(=O)N2CCN(c3nc(-c4cccnc4)nc4ccccc34)CC2)cc1	9
CCOC(=O)C1CCCN(C(=O)COc2ccc(C(=O)c3ccc(F)cc3)cc2)C1 (stereo not given)	1
C=CCC[C@@H](Cc1ccc(F)cc1)C(=O)OC[C@H](C)NC(=O)[C@H](CC=C)CC(=O)N(CCO)Cc1ccccc1	2
Cn1c(SCC(=O)NC(=O)NCc2ccccc2)nnc1C(F)(F)F	-7
COc1ccc(CNCCC2(O)CC(C)N(C)CC2C)cc1OC (stereo not given)	-6
Cc1ccc(NC(=O)CN2CCCC2c2cccn2C)c(Br)c1 (stereo not given)	7
N#C/C(=C\c1ccccc1)C(=O)NNS(=O)(=O)c1ccc(Br)cc1	-7
COc1ccc2cc(C(=O)C3CCCN(C(=O)c4cncs4)C3)ccc2c1 (stereo not given)	?
Cc1ccsc1C(=O)OCC(=O)NC1CCCC(C)C1C (stereo not given)	-5

(further entries)
SMILES	Mtb betalactam
COc1ccc(NS(=O)(=O)c2ccc(C)c(C(=O)NCCCN3CCCC3=O)c2)cc1	-8
Cc1ccc(C(=O)NNC(=O)c2cccc(Br)c2)cc1	-6
CCOC(=O)c1sc2nc(C)nc(SC(C)C(=O)N(C)c3ccccc3)c2c1C (stereo not given)	98
CSc1ccc(CN(C)CC(=O)N(C)CC(=O)Nc2ccccc2Br)cc1	-10
COc1ccc(S(=O)(=O)N2CCc3ccccc32)cc1C(=O)NCCc1ccc(S(N)(=O)=O)cc1	-1
Cc1c(C(=O)NCC(C)(C)N2CCOCC2)oc2ccccc12	-10
O=C(COC(=O)c1cccnc1Cl)NCCc1ccc(F)cc1	-2
COc1ccc(OC)c(-c2csc(NC(=O)COC(=O)C3CCC3)n2)c1	5
COC(=O)C1=C(c2ccc(C(C)=O)cc2)C[C@@H]2CC[C@H]1N2C(=O)NCc1ccco1	4
CCOc1ccc(NC(=O)CN(C)C(=O)c2c(-c3ccccc3)noc2C)cc1OCC	0
O=S(=O)(c1ccc(=S)[nH]c1)N1CCCC1	-3
O=C(COC(=O)c1ccc(F)cc1F)Nc1ccc(Cl)cn1	-5
CN(Cc1ccccc1)S(=O)(=O)c1ccc(NC(=O)c2ccccc2C(=O)O)cc1	-9
COc1ccc([C@H]2CC(=O)C=C(c3cc(C)ccc3OC)C2)cc1	42
Cc1c(C(=O)Nc2ccc3c(c2)OCCO3)oc2ccc(Br)cc12	10
O=C(COc1ccc(Cl)cc1Cl)N(C1CCCCC1)C1CCS(=O)(=O)C1 (stereo not given)	-3
O=C(/C=C/c1ccco1)N1CCN(S(=O)(=O)c2cccc([N+](=O)[O-])c2)CC1	-2
CCCn1nc(C(=O)NNC(=O)CCCOc2ccc(OC)cc2)c2ccccc2c1=O	-9
CCOC(=O)[C@@H]1[C@H]2COc3cc(OC)ccc3[C@H]2N2C(=O)N(c3ccc(OC)cc3)C(=O)[C@]12C	-5
CCOc1ccc(NS(=O)(=O)c2ccc(C(=O)NCc3cccnc3)cc2)cc1	0

Not all compounds are listed, so the mix of outcomes need not match the whole.
